UCH37 DUB inh – inhibitors of human UCH37 deubiquitinase, primary screen, biochemical, Ub-AMC cleavage, fluorescence; purified proteasome/UCH37; inhibition, % (no concentration beside the values); hit rate 0.33% among 330,000;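 active means mean of two replicates above 20%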;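 further: 0% = compound-free wells with enzyme and 100% = wells lacking proteasome; stock transfer was 100 nL into about 20 µL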
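Material: human UCH37 enzyme supplied as purified proteasome complex. Measure: % inhibition of Ub-AMC cleavage fluorescence. Medium: pH 7.4 Tris-HCl (50 mM) with ovalbumin, ATP-MgCl2, DTT. Times: 30 min preincubation with enzyme, 25 min cleavage at room temperature. Detection: AMC fluorescence intensity at 355/460 nm.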
Bfl-1 A1 inh – caspase 3/7 activation in MEF A1-2A-BIM cells, primary screen, A1 inhibitor project, cell-based, luminescence, HTS. caspase activation, % (test concentration not listed). Caspase-Glo 3/7 luminescence, 3 h; percent of clofoctol response, vehicle zero. hit rate 0.066% among 330,000;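 active means over half of replicate activation scores above 10%, or exactly half above 10 with the replicate mean above 10; inconclusive means replicate mean below 10 yet half the replicates above 10; inactive means over half of replicates below 10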;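 further: wells of about 30 µL received 50 nL stock; many hits fall short of the cut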
Beta cell apopt – inhibitors of cytokine-induced beta cell apoptosis, primary screen, luminescence. INS-1E cytokine-induced death, ATP luminescence, 48 h; percent of positive-control rescue, neutral wells zero. protection from apoptosis, % (concentration not given with the values). hit rate 0.8% among 300,000;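 active means all replicates at 75% or more, or half of them and the mean; inconclusive means half reach 75% but not the mean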;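 further: 0% = cytokine-treated negative control wells and 100% = positive control rescue; higher means more ATP so stronger rescue from cytokine killing; wells of about 40 µL received 100 nL stock; the first replicate is given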
Calb FLC – C. albicans growth inhibition with fluconazole, primary screen, CaCi-2 strain, Alamar Blue fluorescence; C. albicans CaCi-2 (fluconazole-resistant clinical isolate) + fluconazole, 48 h; hit rate 0.57% among 300,000; growth inhibition, % (concentration not given with the values); AID 1979, 2009;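 active means most replicates above 75%; inconclusive means exactly half above 75%; inactive means most below 75%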;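 further: all wells also contain fluconazole at 8 µg/ml as a sub-toxic cotreatment; 0% = median of DMSO wells and 100% = median of geldanamycin control wells; wells of about 8 µL received 7.5 nL stock; the first replicate is given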
RanGTP-Imp inh – inhibitors of RanGTP-importin-beta interaction, primary screen, biochemical, FRET, CFP-Ran, YFP-importin-beta, homogeneous; Ran GTPase (GTP-bound) - importin-beta complex; cell-free CFP-Ran/YFP-importin-beta FRET ratio; inhibition, % (concentration not given with the values); hit rate 1.1% among 300,000; AID 2216, 2009;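 active means most replicates above 15%; inconclusive means exactly half above 15%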;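 further: 0% = DMSO wells and 100% = Ran loaded with GDP instead of GTP; wells of about 40 µL received 100 nL stock; the first replicate is given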
LANA-H2B inh – blockers of LANA interaction with H2A/H2B – biochemical, FP readout, HTS, primary screen; Protein LANA1 (Human herpesvirus 8 type P (isolate GK18)), Q9QR71; cell-free LANA-H2A/H2B peptide, fluorescence polarization; inhibition, % (no concentration beside the values); hit rate 0.6% among 320,000; in the data active means inhibition mostly above about 10%, no sharp cut-off; inactive means mostly below about 6.7%;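 further: stock transfer was 7.5 nL into about 10 µL; 0% = median of vehicle wells and 100% = median of positive control wells; one replicate is shown; the record names a cut of 25% in any replicate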
Target sequence (Q9QR71 whole entry, looked up): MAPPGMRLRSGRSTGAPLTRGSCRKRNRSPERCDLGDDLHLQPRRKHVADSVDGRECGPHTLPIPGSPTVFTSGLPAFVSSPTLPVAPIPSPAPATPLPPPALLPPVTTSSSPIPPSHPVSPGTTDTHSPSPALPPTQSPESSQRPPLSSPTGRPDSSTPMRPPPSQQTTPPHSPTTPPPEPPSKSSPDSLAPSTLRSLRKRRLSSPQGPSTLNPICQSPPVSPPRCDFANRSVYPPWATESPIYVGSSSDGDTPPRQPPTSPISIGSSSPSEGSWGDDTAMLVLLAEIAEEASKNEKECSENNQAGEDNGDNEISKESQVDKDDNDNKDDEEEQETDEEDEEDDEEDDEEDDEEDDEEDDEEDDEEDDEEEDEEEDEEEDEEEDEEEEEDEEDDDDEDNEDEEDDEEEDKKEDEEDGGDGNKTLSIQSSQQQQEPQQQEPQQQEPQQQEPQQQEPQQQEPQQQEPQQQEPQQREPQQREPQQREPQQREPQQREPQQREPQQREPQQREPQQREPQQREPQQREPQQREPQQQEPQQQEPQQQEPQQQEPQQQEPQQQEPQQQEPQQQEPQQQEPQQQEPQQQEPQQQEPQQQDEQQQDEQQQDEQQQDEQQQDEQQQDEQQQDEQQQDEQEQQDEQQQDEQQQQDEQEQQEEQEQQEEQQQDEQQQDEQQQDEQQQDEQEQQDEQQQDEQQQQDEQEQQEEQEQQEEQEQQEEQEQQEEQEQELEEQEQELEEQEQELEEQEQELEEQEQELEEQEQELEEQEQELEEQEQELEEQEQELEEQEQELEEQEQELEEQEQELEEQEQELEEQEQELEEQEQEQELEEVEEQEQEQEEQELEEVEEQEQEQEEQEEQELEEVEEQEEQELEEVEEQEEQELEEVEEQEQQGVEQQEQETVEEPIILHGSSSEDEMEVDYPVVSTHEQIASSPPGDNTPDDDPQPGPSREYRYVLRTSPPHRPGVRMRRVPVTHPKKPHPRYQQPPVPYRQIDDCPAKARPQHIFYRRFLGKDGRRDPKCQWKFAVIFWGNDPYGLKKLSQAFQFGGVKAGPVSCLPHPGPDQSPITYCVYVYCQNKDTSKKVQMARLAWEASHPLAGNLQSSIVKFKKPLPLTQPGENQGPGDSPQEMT
B2AR ag – beta2AR agonists driving receptor internalization, primary screen, cell-based, FAP fluorogen, flow cytometry. Beta-2 adrenergic receptor (Homo sapiens), P07550. Am2.2-beta2AR cells; reference of the scale not given here. response, % (no concentration beside the values). hit rate 0.43% among 340,000;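 active means response above a set limit, near 3 SD of response in nonfluorescent compounds, cut at about 42% in these data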;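 further: stock transfer was 100 nL into about 11 µL; a reference agonist was the positive control; negative values mostly stem from fluorescent compounds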
T cruzi inh – inhibitors of intracellular T. cruzi growth, primary screen, luminescence, NIH3T3 host cells; hit rate 1.4% among 300,000; T. cruzi beta-gal in NIH3T3, 90 h; inhibition, % (test concentration not listed);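 active means mean inhibition across valid replicates above about 55%, limit read from the data; inconclusive means mean below that limit but half or more replicates reach it; inactive means mean below it, under half of replicates reach it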;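 further: signal also drops with host cell toxicity which is not excluded here; 0% = plate median of DMSO wells and 100% = zero luminescence signal; higher percent means less beta-gal luminescence so fewer parasites; stock transfer was 50 nL into about 50 µL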
Starred values were filed as active, the others as inactive; i = inactive; ? = inconclusive; . = not tested or not shown.

Under each structure – UCH37 DUB inh	Bfl-1 A1 inh	Beta cell apopt	Calb FLC	RanGTP-Imp inh	LANA-H2B inh	B2AR ag	T cruzi inh
CCN1CCN(CCNC(=O)c2ccc(CS(=O)(=O)c3c(Cl)cccc3Cl)o2)CC1
  -1.5	-0.1	-1	.	.	1.8	-1	.
COc1ccc(-c2noc(COc3ccccc3OC)n2)cc1OC
  2.5	-0.6	1	16	2.1	-0.2	-1	1
COCCn1c(-c2ccc(OC)cc2)cnc1SCC(=O)Nc1cc(C)on1
  -0.1	0.4	0	-5	1.1	-4.6	11	-5
Cc1nc(Nc2ccc(S(=O)(=O)N3CCCCC3C)cc2)c2nnn(Cc3ccccc3)c2n1 (stereo not given)
  .	-0.3	76*	3	4.6	-3.8	6	64*
Oc1cccc(C(=S)N2CCC(Cc3ccccc3)CC2)c1
  5.1	-0.9	-3	-26	1.6	-1.3	0	11
Cc1c(NC(=O)Nc2ccc(Cl)c(Cl)c2)sc(=S)n1C
  .	-0.4	0	0	?	3.9	12	-1
O=C(NCc1nc2ccccc2[nH]1)C1=C[C@@H](c2csc3ccccc23)C[C@@H](OCCCCO)O1
  0.0	-0.1	2	27	?	-2.8	10	29
CCOC(=O)c1ccc(NC(=S)Nc2ccccc2)cc1
  0.2	1.2	0	-35	-2.4	1.7	-9	-17
CCOc1ccc(-n2c(SCc3cc(=O)oc4cc(C)ccc34)nnc2-c2cccnc2)cc1
  4.3	0.3	8	10	?	2.7	-9	1
O=C(O)c1ccc(-n2cncn2)c([N+](=O)[O-])c1
  2.5	0.4	-8	-7	11	0.3	-1	0
O=C(NN1C(=O)/C(=C/c2ccc(O)c([N+](=O)[O-])c2)SC1=S)c1ccccc1Cl
  24*	0.2	8	2	-13	1.3	7	-1
N/C(=N\OC(=O)CC1CCCCC1)c1ccccn1
  3.7	-2.7	-12	-14	10	0.2	-2	-19
Cn1c(CNC(=O)c2ccco2)nnc1SCC(=O)Nc1c(F)cc(F)cc1Br
  0.1	-0.1	-6	12	-1.1	1.6	2	-15
COC(=O)C1=C(C)N(Cc2ccccc2)C(=NCCc2ccccn2)N[C@H]1c1cccc(C(F)(F)F)c1
  1.4	0.9	2	.	.	-3.3	16	.
CCOc1ccc(NS(=O)(=O)c2ccc(NC(=O)c3ccccc3C(=O)O)cc2)cc1
  3.4	-0.2	-2	-15	2.8	-0.9	-4	-19
Cc1cc(N2CC(C)OC(C)C2)nc2ccccc12 (stereo not given)
  -128	0.3	-7	2	0.9	2.8	4	-9
Cc1[nH]c2ccc(C(=O)NC3CCC(C)CC3)cc2c1C (stereo not given)
  1.1	0.0	4	-4	-1.8	-1.9	-1	0
COC(=O)c1cc2oc(C)cc2n1CC(=O)N1CCCc2ccccc21
  2.9	2.4	-1	-3	0.3	-3.1	10	9
Cc1cccc(C)c1OCc1n[nH]c(=S)n1-c1ccccc1
  0.7	0.0	-7	24	1.9	-1.1	14	-8
Cn1cnc([N+](=O)[O-])c1Nc1cccc(O)c1
  -0.5	0.2	6	4	-2.8	3.0	-2	-22
COc1cc(C)ccc1OCCCON1C(=O)CCC1=O
  1.4	0.9	.	-2	-1.2	2.5	-10	0
COC(=O)c1nc2n(n1)C(c1ccc([N+](=O)[O-])cc1)C(C(=O)Nc1ccc(Cl)cc1)=C(C)N2 (stereo not given)
  7.6	0.0	-9	-14	1.4	0.2	-8	-3
OCC[C@H]1C[C@@H](O)[C@H](O)[C@@]2(Cc3ccccc3CO2)O1
  12	0.8	-4	.	.	0.2	-19	.
Cc1nc2nc(COc3ccccc3)nn2c(C)c1Cl
  -0.9	-0.2	2	.	.	2.1	-8	.
Cc1ccc(-c2nn3c(C)nnc3s2)cc1NC(=O)c1ccc(Br)o1
  2.9	0.3	2	1	2.3	-0.6	-20	13
CCOc1ccc(N(CC(=O)Nc2cc(C)cc(C)c2)S(C)(=O)=O)cc1
  2.5	-1.0	-2	.	-0.3	-0.2	11	14
CC(C)(C)CC(=O)Nc1ccc(-c2cn3cccnc3n2)cc1
  i	0.2	-4	1	-2.7	2.5	-6	2
COc1ccc(S(=O)(=O)c2nnn(-c3cccc(Cl)c3)c2N)cc1
  2.0	0.8	-2	-14	3.2	0.6	-4	-5
CN(C)c1ccc(NC(=O)Nc2cccc3ccccc23)cc1
  1.3	-1.0	7	1	-2.2	-4.8	7	35
O=C(CSc1ccc2ccccc2n1)NC1CC1
  5.2	1.4	-3	.	.	5.7	7	.
CCC(=O)C1CCCN(C(=O)c2ccc(OC3CCN(C(=O)CCOC)CC3)cc2)C1 (stereo not given)
  3.5	1.1	-5	-2	-0.8	3.0	4	-7
Cc1cc(C)nc(SCC(CSc2nc(C)cc(C)n2)C(=O)O)n1
  0.5	0.2	.	-3	-1.1	1.6	7	-9
O=C1CCCCN1CC(=O)N1CCCC(Nc2ccc(F)cc2)C1 (stereo not given)
  3.0	0.6	-4	?	-1.8	-3.2	2	-1
Cc1ccccc1C(=O)NNC(=O)Cc1cccc2ccccc12
  1.3	0.0	-5	-2	2.6	-1.2	2	3
Cc1ccc(C)c(N2CCN(c3ccc4cc(S(=O)(=O)N5CCCCC5)ccc4n3)CC2)c1
  -469	0.2	6	27	3.1	-0.3	3	32
CCOc1ccc(CN(C(=O)c2oc3ccccc3c2C)C2CCS(=O)(=O)C2)cc1 (stereo not given)
  1.2	-0.7	1	101*	.	-1.9	-9	0
CC(=O)Nc1ccc(S(=O)(=O)N(C)c2ccc(O)cc2)cc1
  4.9	-0.4	.	-5	-0.8	-3.0	14	-9
O=C(NCCc1ccccc1)c1ccc2[nH]c(=O)c(=O)[nH]c2c1
  -101	0.6	-7	0	2.4	-3.2	-1	-21
O=C(OCCc1cc2ccccc2c(=O)o1)c1ccccc1C(F)(F)F
  -0.5	0.1	-2	.	.	-4.0	-9	.
C/C(=N\NC(=O)c1nn(C)cc1Br)c1cccc(NC(=O)C(C)(C)C)c1
  .	-0.4	.	-11	0.0	2.2	-1	3
CCOC(=O)C(CC)/C(C)=N/NC(=O)c1ccc([N+](=O)[O-])cc1 (stereo not given)
  .	0.3	1	-6	-1.3	0.3	-9	-11
COC(=O)CSc1nc2cc(Cl)ccc2c(=O)n1C1CCCC1
  4.1	0.5	1	13	1.3	-2.8	7	5
CC1CC(C)CN(C(=O)c2cc(-c3ccncc3)nc3ccccc23)C1 (stereo not given)
  1.3	0.7	-4	-18	6.5	-0.7	11	3
Cn1nc(-c2ccc(N3CCOCC3)c(NS(=O)(=O)c3ccccc3)c2)c2ccccc2c1=O
  0.8	0.0	8	1	-1.2	-2.4	0	2
Cc1ccc(S(=O)(=O)NCCC(=O)NNc2c(F)c(F)cc(F)c2F)cc1
  1.5	-0.3	-5	.	.	2.3	-4	.
CC(=C/c1ccccc1)/C=N/NC(=O)c1nnn(-c2nonc2N)c1CN1CCC(C)CC1
  .	0.4	17	0	7.9	4.8	-4	37
CCOC(=O)C1=C(COC(=O)/C=C/c2ccc(OCC)c(OC)c2)NC(=O)NC1C (stereo not given)
  -32	1.2	-2	10	6.4	-4.3	-1	-11
O=C(CS(=O)(=O)c1c[nH]c2ccccc12)N1CCCCCC1
  -1.7	0.4	-5	12	-7.3	-1.7	0	6
O=C(OCC(=O)c1ccc(Cl)s1)c1ccc2ccccc2n1
  -0.1	-0.8	-4	20	-1.1	-0.4	6	0
COc1ccc(CNc2cc([N+](=O)[O-])ccc2OC)cc1
  3.5	0.7	-3	-3	-3.5	-0.3	-1	5

Further structures.
Under each structure – UCH37 DUB inh	Bfl-1 A1 inh	Beta cell apopt	Calb FLC	RanGTP-Imp inh	LANA-H2B inh	B2AR ag	T cruzi inh
O=C(CCc1ccccc1)Nc1cc2c(cc1Cl)OCCO2
  1.0	-0.9	-3	-24	2.8	-6.6	3	4
CN(CC(O)COc1c(F)cc(Br)cc1F)C1CCCCC1 (stereo not given)
  5.1	-0.6	-2	-24	.	-0.8	-3	14
COc1ccccc1CNC(=O)COC(=O)c1ccc(NC(N)=O)cc1
  6.6	-0.1	-9	-24	4.8	-0.2	-8	-15
COc1ccc(NC2=NCCC(=O)N2Cc2cccs2)cc1
  3.1	0.6	-4	22	-0.9	1.4	9	-13
Cc1ccc(C(C)NC(=O)c2cc(C)oc2C)cc1 (stereo not given)
  0.5	-0.8	-11	-6	3.2	1.9	-2	-1
Cc1ccc(CNC(=O)c2cccc(S(C)(=O)=O)c2)cc1
  0.2	0.8	-6	-2	-4.0	0.6	-2	-4
COc1ccc(/C=C/C(=O)OCc2csc(-c3ccccc3)n2)cc1OC
  .	0.6	0	2	2.3	2.0	11	2
c1coc(C2Nc3ccccc3C3OCCC23)c1 (stereo not given)
  -15	-0.5	-4	3	1.7	-1.4	-2	-17
CN1C(=S)SC(N2OC3C(=O)N(c4ccccc4)C(=O)C3C2c2ccc(Cl)cc2)C1(C)C (stereo not given)
  4.2	0.1	-4	-7	-4.3	7.6	3	9
O=C(CN1C(=O)/C(=C/c2ccccc2)Sc2ccccc21)NCCCN1CCOCC1
  1.7	1.3	1	-6	2.4	1.2	-7	-12

Source: PubChem BioAssay
